# Screening data as filed in PubChem.
# ugtP null kill – compounds lethal to S. aureus RN4220 ugtP deletion mutant; AID 1259309; growth inhibition, % (concentration not given with the values); OD600 growth, 16 h; some inactives read as strong as hits; 330,000 tested, 0.54% active;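 active means z-score under -3 and OD600 up to 0.15 on both plates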;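 further: plate controls were untreated wells for no effect and antibiotic for full effect; wells of about 80 µL received 100 nL stock; the first replicate is given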
# PrP 5UTR inh – suppresses PrP 5' UTR mRNA reporter expression; 340,000 tested, 0.35% active; inhibition, % (test concentration not listed); cell-based PrP 5' UTR mRNA reporter, plate reader;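 active means every replicate at 50% or more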;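 further: 0 = median of the neutral control wells; tested in H4 reporter cells; numbers are from one replicate; inactives centre near -14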
# Bead autofluor – counter-screen for toxin protease inhibitors: compound fluorescence. compound autofluorescence counterscreen, microsphere flow cytometry; active compounds read high. fluorescence intensity (no concentration beside the values). 360,000 tested, 3.1% active;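 active means at least 3 SD above the mean of all compounds, about 16000 in these data; inconclusive means too few beads counted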;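 further: 100 nL of 1 mM stock went into each well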
# Mtb hypoxia rep – reduces hypoxia-regulated biosensor signal in M. tuberculosis; fluorescence inhibition, % (concentration not given with the values); 300,000 tested, 0.1% active; M. tuberculosis hypoxia-regulated fluorescent reporter, fluorescence;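 active means 35 to 45% if threefold the growth effect, above 45% if 1.5-fold the growth effect; inactive means the rest, general growth blockers included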;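 further: wells of about 50 µL received 100 nL stock; 0% = vehicle wells and 100% = reference inhibitor wells; whole bacteria with a GFP reporter of the hypoxia response; strong numbers were not always called active; many hits fall short of the cut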
# Sa RN4220 lethal – kills Staphylococcus aureus RN4220; AID 1259311; inhibition, % (concentration not given with the values); S. aureus RN4220 growth, OD600, 16 h; 330,000 tested, 0.33% active;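 active means z-score of -3 or lower and OD600 up to 0.18 on both plates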;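 further: plate controls were untreated cells for no effect and reference antibiotic for full effect; stock transfer was 100 nL into about 80 µL; one replicate is shown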
# BJeLR lethal – kills HRASV12-expressing BJeLR cells. inhibition, % (concentration not given with the values). BJeLR (HRASV12) viability, CellTiter-Glo ATP luminescence, 48 h; reference of the scale not given here. 300,000 tested, 0.17% active;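 active means replicate mean above 50%; inconclusive means above 50% but judged a plate artefact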;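 further: 50 nL library stock added to about 25 µL; numbers are from one replicate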
# Mtb hypoxia rep growth – second read-out of Mtb hypoxia rep, no call of its own (marks repeat the call); growth inhibition, %; measured here: M. tuberculosis growth (absorbance);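 0% = vehicle and 100% = reference antibiotic; read after six days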
# Active calls of the source: *; ? = inconclusive; · = not tested or not shown; & = joins results of further samples.
# Start of the listing, in advance (6 entries):
SMILES,ugtP null kill,PrP 5UTR inh,Bead autofluor,Mtb hypoxia rep,Mtb hypoxia rep growth,Sa RN4220 lethal,BJeLR lethal
N=C(N)SCCc1cnc[nH]1,-5,-10,4721,-1,4,2.1,·
CCOc1ccc(C(=O)CCC(=O)N2CCN(c3ccc(O)cc3)CC2)cc1,-4,-22,?,6,1,2.7,·
C=CCn1c(Cc2c[nH]c3ccccc23)nnc1SCC(=O)NCc1ccccc1,0,-7,23009*,17,9,1.7,-10
COc1ccc(S(=O)(=O)N2CCOCC2)cc1NC(=O)Cc1ccsc1,3,-5,4684,3,8,-1.8,·
CCNC(=O)Cn1cc(C#N)c2ccccc21,-6,-63,2899,0,-4,-0.8,5
CCC1(c2ccc(F)cc2)NC(=O)N(CC(=O)NCc2ccc(C)cc2)C1=O (configuration not stated),17,-15,3289,15,15,1.3,-4

# The listing, previewed entries included:
SMILES,ugtP null kill,PrP 5UTR inh,Bead autofluor,Mtb hypoxia rep,Mtb hypoxia rep growth,Sa RN4220 lethal,BJeLR lethal
N=C(N)SCCc1cnc[nH]1,-5,-10,4721,-1,4,2.1,·
CCOc1ccc(C(=O)CCC(=O)N2CCN(c3ccc(O)cc3)CC2)cc1,-4,-22,?,6,1,2.7,·
C=CCn1c(Cc2c[nH]c3ccccc23)nnc1SCC(=O)NCc1ccccc1,0,-7,23009*,17,9,1.7,-10
COc1ccc(S(=O)(=O)N2CCOCC2)cc1NC(=O)Cc1ccsc1,3,-5,4684,3,8,-1.8,·
CCNC(=O)Cn1cc(C#N)c2ccccc21,-6,-63,2899,0,-4,-0.8,5
CCC1(c2ccc(F)cc2)NC(=O)N(CC(=O)NCc2ccc(C)cc2)C1=O (configuration not stated),17,-15,3289,15,15,1.3,-4
CCOC(=O)C1=C(C)Nc2nc3ccccc3n2C1c1ccc(O)cc1 (configuration not stated),6,-5,4109,4,0,-6.4,-2
COC(=O)C[C@H](NC(=O)Cn1cnc(C(=O)Nc2ccc(C)c(C)c2)n1)C(=O)OC,5,-8,3678,-4,5,5.4,·
Cc1ccc(C)c(S(=O)(=O)N2CCN(C(=O)[C@@H]3CCCN3C(=O)c3cccs3)CC2)c1,-2,-28,4042,13,3,-0.3,·
Cc1cc(C)nc(NS(=O)(=O)c2ccc(NC(=O)Cc3ccccc3F)cc2)n1,15,-19,3654,4,8,3.4,-12
COC(C[C@@H](O)C[C@@H](O)COCc1ccccc1)OC,·,-20,4344,·,·,·,-12
CC(=O)Nc1cccc(NC(=O)c2ccc(COc3ccccc3)cc2)c1,-5,-68,3934,8,5,9.5,-19
Nc1nc(SCC(=O)N2CCN(c3ccc(F)cc3)CC2)n[nH]1,8,-26,3909,10,5,5.4,·
Cc1ccc(S(=O)(=O)Nc2cc3c4c(c2)C(C)C(=O)N4CCC3)cc1 (configuration not stated),-1,-13,4160,-3,-7,1.5,4
NS(=O)(=O)c1ccc(NC(=O)COC(=O)Cn2cnc3ccccc3c2=O)cc1,-8,-12,2841,7,8,-4.7,·
COCc1c(C(=O)NCCc2ccc(OC(F)F)cc2)oc2ccccc12,1,-20,3747,17,13,6.7,·
CC(=O)c1c(C)[nH]c(C(=O)N2c3ccccc3CC2C)c1C (configuration not stated),7,-26,5404,4,3,2.7,-27
CCN(CC)S(=O)(=O)c1cccc(NC(=O)CCNC(=O)c2ccc([N+](=O)[O-])cc2)c1,2,0,5000,-2,-2,1.2,4
CN1CCN(c2ccncc2S(=O)(=O)N2CCCCC2)CC1,·,2,6134,·,·,·,-4
CCOc1ccc(NS(=O)(=O)c2ccc3[nH]cc(C(=O)NCC4CCCO4)c(=O)c3c2)cc1 (configuration not stated),11,-24,2628,·,·,1.6,-1
O=C1NC(=O)/C(=C/c2ccccc2Oc2ccc(Cl)cc2)S1,·,0,3235,·,·,·,4
O=S(=O)(c1ccc(Cl)cc1)N1CCc2ccccc21,-4,-28,5298,9,3,-1.6,4
COc1ccccc1NC(=O)COC(=O)c1cc(C)n(C2CC2)c1C,7,-15,3320,7,-1,5.8,·
O=C(N/N=C/c1cccc(OCc2ccccc2)c1)c1ccc(Br)cc1,·,-2,9231,·,·,·,-2
Cc1cccc(C(=O)NCC(=O)NC2CCN(Cc3ccccc3)CC2)c1,3,-14,7214,10,-2,3.9,1
FC(F)(F)c1nnc2c(Sc3ccc(Cl)cc3)nc3ccccc3n12,-10,-17,5798,7,7,0.7,59*
C=CCN=C1NN=C(c2ccc3c(c2)OCCO3)CS1,-6,59*,2532,8,-1,6.3,4
CCN(CC)c1ccc([N+](=O)[O-])c2cccnc12,6,-11,5207,15,-1,1.8,-1
Cc1csc(=NN=Cc2ccccc2)n1Cc1ccco1,30,·,·,9,-10,-4.0,·
COc1ccc(C(=O)NC(=S)N2CCCC2)cc1,4,-22,4753,4,3,1.0,-7
CN(C)Cc1c[nH]c2cc([N+](=O)[O-])ccc12,-3,-20,3659,12,12,0.7,·
Cc1ccc(OCc2nnc(NC(=O)OCC(C)C)s2)cc1,2,-15,3294,11,5,5.7,17
O=C(COC(=O)c1nc(Cl)ccc1Cl)Nc1ccc(Cl)cn1,-3,-11,3967,-2,3,-7.9,·
CCC(C)[C@H](NC(=O)NCCCn1ccnc1)C(=O)OC (some centres not stated),4,-1,2058,-4,1,1.5,7
CCOC(=O)c1c(C)[nH]c(C)c1C(=O)COC(=O)c1cc2ccccc2cc1OC,-14,-24,7137,8,7,4.3,-19
N#Cc1nc(-c2cccc(Cl)c2)oc1NCc1cccnc1,-9,-22,9439,1,6,3.3,8
COc1cc(OC)c2c(C)cc(=O)oc2c1C(CCN1CCN(c2ccccc2)CC1)c1ccc2c(c1)OCO2 (configuration not stated),17,3,3063,-9,-4,34,1
C/C(=N\Nc1nc(-c2cc(C)ccc2C)cs1)c1cc2c(ccc3ccccc32)oc1=O,·,-11,2670,·,·,·,-12
COc1ccc(-c2[nH]ncc2CN2CCC(O)(c3ccc(Cl)cc3)CC2)cc1,·,-12,4047,·,·,·,4
COc1ccc(C(=O)NC(=S)Nc2ccc(Cc3ccncc3)cc2)cc1,24,-8,4500,18,24,-1.7,-1
OCCC1CN(Cc2ccc(Oc3ncccn3)cc2)CCN1CCc1ccccc1 (configuration not stated),13,-17,2489,-2,1,-0.1,3
COc1ccc(C2(O)CCN(Cc3nnnn3Cc3ccc(C)cc3)CC2)cc1,14,-20,6859,-1,1,11,-12
CCCN1CCC(=O)N(C(CO)CC(C)C)CC1 (configuration not stated),1,·,·,-3,5,2.9,·
COc1ccc(OCC2NCCc3cc(OC)c(OC)cc32)cc1 (configuration not stated),-1,-16,6338,0,-2,-0.6,-5
CC(C(=O)N1CCCCC1)N1C(=O)c2ccccc2C1=O (configuration not stated),-3,-6,4455,·,·,-5.3,-14

# An excerpt from above in order of length of the SMILES, largest number first:
SMILES,ugtP null kill,PrP 5UTR inh,Bead autofluor,Mtb hypoxia rep,Mtb hypoxia rep growth,Sa RN4220 lethal,BJeLR lethal
C/C(=N\Nc1nc(-c2cc(C)ccc2C)cs1)c1cc2c(ccc3ccccc32)oc1=O,·,-11,2670,·,·,·,-12
COc1ccc(-c2[nH]ncc2CN2CCC(O)(c3ccc(Cl)cc3)CC2)cc1,·,-12,4047,·,·,·,4
COc1ccc(C2(O)CCN(Cc3nnnn3Cc3ccc(C)cc3)CC2)cc1,14,-20,6859,-1,1,11,-12
O=C(COC(=O)c1nc(Cl)ccc1Cl)Nc1ccc(Cl)cn1,-3,-11,3967,-2,3,-7.9,·
COc1ccc(OCC2NCCc3cc(OC)c(OC)cc32)cc1 (configuration not stated),-1,-16,6338,0,-2,-0.6,-5
Cc1ccc(OCc2nnc(NC(=O)OCC(C)C)s2)cc1,2,-15,3294,11,5,5.7,17
CCCN1CCC(=O)N(C(CO)CC(C)C)CC1 (configuration not stated),1,·,·,-3,5,2.9,·

# (list continues)
SMILES,ugtP null kill,PrP 5UTR inh,Bead autofluor,Mtb hypoxia rep,Mtb hypoxia rep growth,Sa RN4220 lethal,BJeLR lethal
O=C(NCCCN1CCOCC1)c1ccc([N+](=O)[O-])cc1[N+](=O)[O-],11,-30,4504,·,·,17,-8
Cc1ccccc1CNC(=O)CCC(=O)N1CCOc2ccccc21,-5,-25,5967,11,7,-12,-5
CCN(CC1CCCN(CCc2cccc(OC)c2)C1)C(=O)c1ccc(COC)o1 (configuration not stated),11,-1,5587,6,5,1.8,10
Cc1c(-c2ccccc2)oc2c(C(=O)OCC(=O)Nc3ccc(F)cc3)cccc2c1=O,-4,-20,2209,0,3,6.6,-3
CCSc1nc(N)c(C#N)c(-c2ccccc2Cl)c1C#N,20,-6,9422,5,7,5.5,10
COc1ccc(C(=O)N/C(=C\c2cn(C)c3ccccc23)C(=O)NCCCN2CCOCC2)cc1,4,-1,6149,6,2,-0.4,1
COc1ccc(CN2CC(C(=O)NCCCN3CCCC(C)C3)CC2=O)cc1 (configuration not stated),5,-14,5481,-7,3,0.7,-2
COc1ccc(NC(=O)CCNS(=O)(=O)c2ccc3c(c2)c(=O)n(C)c(=O)n3C)cc1,-3,-9,10219,4,13,-0.8,-15
O=C(COC(=O)c1ccc(O)cc1O)NCCN1C(=O)CSC1=O,7,-18,4511,-3,1,3.3,-8
S=C(NN=Cc1ccc(Br)cc1)N1CCCCC1,-2,·,·,20,15,5.1,·
O=C(OCc1ccccc1)c1ccc2c(c1)-c1ccccc1C2=O,3,-101,3330,·,·,-0.7,-2
CCc1nnc(SCC(=O)NC2CCCC2)nc1CC,10,0,·,-3,6,6.7,-2
NC(=O)COc1cccc(/C=N/NC(=O)c2ccc(-n3cccc3)cc2)c1,·,-12,5813,·,·,·,10
C(=NNc1nc(N2CCCC2)nc(N2CCCC2)n1)c1ccccc1OCc1ccccc1,-5,·,·,3,-4,-0.3,·
CC1CN(CC(O)COCc2ccc3c(c2)OCO3)CC(C)O1 (configuration not stated),4,-4,2570,-2,-7,4.2,-17
CCC(C)NC(=O)c1cc(Cl)c(NC(=O)C2=C(C)OCCS2)cc1OC (configuration not stated),-3,-18,2931,6,0,2.6,-4
CC1CC(C)CN(CCCNC(=O)C2CCN(c3ncnc4c3sc3cccc(F)c34)CC2)C1 (configuration not stated),0,·,·,2,3,6.8,5
CCc1noc(C)c1C(=O)Nc1cccc(S(=O)(=O)N2CCCCCC2)c1,6,-1,4682,14,5,3.8,-2
COc1ccc(S(=O)(=O)N(C)CC(=O)Nc2ccccc2C(F)(F)F)cc1Cl,2,-19,10745,7,2,7.5,3
O=C(Nc1cccc(-c2cnc3ccccc3n2)c1)c1ccccc1,8,1,8080,3,-1,5.7,0
O=c1c2ccccc2ncn1CCOCCOc1cccc(Br)c1,5,3,2571,-3,-2,12,9
c1cc2c3c(cccc3c1)C(N1CCCCC1)=N2,2,-21,4201,·,·,2.3,7
Cc1cccc(C(CC(=O)O)n2cccc2)c1 (configuration not stated),7,-29,?,18,9,2.3,6
CC1(C)c2[nH]c3ccccc3c2CC2C(=O)N(Cc3ccco3)C(=O)N21 (configuration not stated),3,·,·,-3,7,6.2,·
CCOC(=O)c1ccc(CSc2nnc(C)n2N)o1,9,-8,4243,·,·,0.8,-4
COc1ccc(-c2cc(=O)c3cc(O)ccc3o2)cc1,·,-16,3923,·,·,·,-5
CCS(=O)(=O)N1CCN(C(=O)c2ccccc2)CC1,-14,-7,13715,7,6,5.8,-4
COc1ccc(N=C(C)c2sc3ccccc3c2O)cc1,10,-81,5760,-6,3,4.0,0
CC1COC(=O)C(CC(=O)OC(C)(C)C)CC=CCC(CC(=O)NC(CO)Cc2ccccc2)C(=O)N1 (configuration not stated),3&3&2&3&7,·,·,12&17&16&-2&0,7&15&8&-4&7,4.6&6.2&4.9&4.8&2.5,·
C=CCn1c(C)cc(-c2csc(N)n2)c1C,-17,-20,7808,4,6,11,-8
Cc1nc2c(cnn2-c2ccccc2Cl)c(=O)n1-c1ccc(C(C)C)cc1,12,1,3504,15,18,2.9,-2
Brc1ccc(-c2noc(CCc3ccccc3)n2)cc1,65,-34,4488,-3,-12,4.9,4

# No enrichment for hits; about 4% have a hit in one of these screens.
